# Bioassay records from PubChem.
# Menin-MLL FL inh = displaces fluorescein MLL peptide from human menin; Fluorescence polarization, fluorescein-MLL peptide displacement from menin; FP activity change, % at 61.4 µM; 290,000 tested, under 10 active; inconclusive = falling polarisation curve, or a change in total fluorescence; inactive = total fluorescence flat and polarisation flat or rising; no compound was filed as active; the % refers to the polarisation; negative = inhibition;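 note: % of control where 0% means no effect; inhibitors lower the polarisation; unlabelled MLL peptide was the positive control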
# Sfp inh = inhibitors of Bacillus subtilis Sfp phosphopantetheinyl transferase; Biochemical Sfp PPTase activity, qHTS; Potency, µM, inactives show max response, negative = inhibition, most hits filed as inhibitors; actives 3.5% (n = 310,000); active = well fitted inhibition curve with a large enough effect; inconclusive = small, poorly fitted or top-dose-only effect, or another doubt; inactive = no such curve, though single readings can be large or run the other way;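 note: the enzyme is Sfp with the accession as filed and its product quenches rhodamine fluorescence; potency is the fitted concentration of half-maximal effect; 0% = enzyme reaction without inhibitor and -100% = no enzyme wells; top concentration of the series not given in the record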
#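 Reaction rates are the 30-min fluorescence difference (ex 525, em 598 nm) in wells containing 15 nM Sfp, 5 uM rhodamine-CoA and 12.5 uM BHQ-2-YbbR at pH 7.6 with 10 mM MgCl2.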
# TRPV1 PAM = human TRPV1 potentiation; AID 540277; TRPV1-expressing cells, Fluo-8 calcium influx, capsaicin EC20 potentiation; host cell line not named in the record; control for the full effect not named in the record; Q8NER1; actives 0.02% (n = 320,000); potentiation, % at 8.33 µM; active means potentiation above 80%; inconclusive means 30% to 80%; inactive means below 30%; note: 0% is about no effect
# Target sequence (Q8NER1 whole entry, looked up): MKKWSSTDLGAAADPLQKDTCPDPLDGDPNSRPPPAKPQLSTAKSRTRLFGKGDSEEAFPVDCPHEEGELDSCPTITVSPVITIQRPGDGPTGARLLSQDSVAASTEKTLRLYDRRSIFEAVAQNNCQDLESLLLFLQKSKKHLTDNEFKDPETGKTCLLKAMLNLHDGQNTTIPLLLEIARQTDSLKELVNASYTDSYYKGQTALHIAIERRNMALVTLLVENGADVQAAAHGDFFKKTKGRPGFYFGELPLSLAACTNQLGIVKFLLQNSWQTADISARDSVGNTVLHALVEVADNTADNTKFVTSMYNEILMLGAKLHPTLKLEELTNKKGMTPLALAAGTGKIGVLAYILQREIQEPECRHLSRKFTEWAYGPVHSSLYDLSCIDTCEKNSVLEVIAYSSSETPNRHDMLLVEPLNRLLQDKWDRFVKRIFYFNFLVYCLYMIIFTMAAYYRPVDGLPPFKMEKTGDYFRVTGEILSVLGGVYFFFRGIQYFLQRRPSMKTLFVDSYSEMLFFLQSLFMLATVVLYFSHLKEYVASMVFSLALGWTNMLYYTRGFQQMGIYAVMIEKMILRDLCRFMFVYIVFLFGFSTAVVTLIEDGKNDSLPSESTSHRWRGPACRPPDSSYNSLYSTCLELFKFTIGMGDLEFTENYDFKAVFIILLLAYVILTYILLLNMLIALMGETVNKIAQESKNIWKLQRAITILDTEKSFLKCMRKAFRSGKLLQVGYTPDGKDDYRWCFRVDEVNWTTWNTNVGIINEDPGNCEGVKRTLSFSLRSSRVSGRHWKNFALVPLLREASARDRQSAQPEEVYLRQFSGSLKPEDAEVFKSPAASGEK
#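 TRPV1-expressing cells were cultured overnight at 35.5C and loaded with Fluo-8 calcium dye for 40 to 90 min at room temperature. After a 10 s baseline, compound was added and calcium influx was read kinetically for 3 min (ex 480/em 520 nm).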
# ClpP mod = qHTS Assay for Activators of ClpP. ATP-dependent Clp protease proteolytic subunit (Bacillus subtilis (strain 168)), P80244. purified B. subtilis ClpP, FRET peptide cleavage, 20 min. Potency, µM (top dose mostly 57.5 µM), for inactives: at the top dose activity change, negative = active. actives 1.9% (n = 340,000). AID 651965, 2013; active = well fitted falling curve with a large enough effect; inconclusive = small, poorly fitted or top-dose-only effect; inactive = no such curve, though single readings can be large or run the other way; note: potency is the fitted concentration of half-maximal effect; the source files actives as falling curves though it sought activators and does not explain the sign; nearly all actives have a fitted effect of over 65% in size; many hits overshoot -100%
# Target sequence (P80244 whole entry, looked up): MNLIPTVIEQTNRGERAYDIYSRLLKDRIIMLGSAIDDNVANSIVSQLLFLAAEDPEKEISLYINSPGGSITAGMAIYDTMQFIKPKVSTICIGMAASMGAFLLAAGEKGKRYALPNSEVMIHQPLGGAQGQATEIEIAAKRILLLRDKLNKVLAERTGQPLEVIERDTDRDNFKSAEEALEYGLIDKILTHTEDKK
#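 Purified B. subtilis ClpP, 10 microg/mL final in Tris/HCl pH8 with KCl, BSA, glycerol and Tween-20, cleaved an Abz/nitrotyrosine-quenched decapeptide. Fluorescence (ex 320, em 430) was read at 0 and 20 min at room temperature. Delta was normalized to 5.8 microM ADEP and DMSO/no-enzyme controls.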
# CtBP-E1A blk = inhibitors of CtBP/E1A interaction. AlphaScreen GST-E1A/His-CtBP binding, 1536-well; hits give low values; control for the full effect not named in the record. activity change, % (concentration not given with the values). actives 0.49% (n = 340,000). AID 651724; in the data active means activity change below about -65%; inconclusive means about -30% to -65%; inactive means above about -30%; note: % is set by controls: 0 for no effect and ±100 for the full control effect
#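 Protein mix (5X: 125 nM each GST-E1A, His-CtBP) was incubated with pinned compound 2 h at 37 deg C in dark, in 50 mM Tris pH 8.0 buffer with 300 mM NaCl. Glutathione donor and nickel acceptor beads followed; AlphaScreen signal read after 1 h.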
# gsp agonist = agonists of gsp mutant (McCune-Albright syndrome) | gsp mutant cells, cAMP HTRF, 30 min; control for the full effect not named in the record | Potency, µM (top dose mostly 76.9 µM), inactives show top-dose activation (cAMP increase), actives largely listed as activators | actives 0.13% (n = 340,000); active = well fitted activation curve with a large enough effect; inconclusive = small, poorly fitted or top-dose-only effect, or another doubt; inactive = no such curve, though single readings can be large or run the other way; cell line not stated here;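 note: phosphodiesterase inhibitor Ro 20-1724 added with compounds to block cAMP breakdown; potency is the fitted concentration of half-maximal effect; nearly all actives have a fitted effect of over 60% in size; about a fifth of the inactives were tested at one dose only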
#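 Cells in DMEM/10% FBS with G418 were pretreated with compounds in DMSO plus […] (300 uM stock) for 30 min at 37C. cAMP was measured by HTRF (cAMP-d2 plus anti-cAMP antibody-K) after 30 min at room temperature.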
# gsp antagonist = antagonists of gsp mutant (McCune-Albright syndrome); Potency, µM (series often up to 76.9 µM), inactives show at the highest dose activity change, negative = inhibition, most hits filed as inhibitors; AID 624288; actives 0.4% (n = 340,000); gsp-mutant cells, cAMP HTRF, 30 min; control for the full effect not named in the record; active = falling curve of any shape with a large fitted effect; inconclusive = falling curve, mostly with a smaller effect; inactive = flat or rising curve; cell line not stated here;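 note: intracellular cAMP measured with PDE inhibitor Ro 20-1724 present during compound exposure; potency is the fitted concentration of half-maximal effect; % is set by controls: 0 for no effect and ±100 for the full control effect; nearly all actives have a fitted effect of over 65% in size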
#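 Measurement of cellular cAMP by homogeneous time-resolved fluorescence following a 30 min compound exposure at 37C. The PDE inhibitor […] was present throughout; the assay buffer was DPBS with 0.05% BSA and 0.005% Tween 20.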
# The depositor's hits bear a star; u = inconclusive; x = no result given; & = joins results of further samples; ! = repeats disagree; [ ] = another dose, or the depositor's remark.
smiles,TRPV1 PAM,Menin-MLL FL inh,ClpP mod,CtBP-E1A blk,gsp antagonist,gsp agonist,Sfp inh
COC(=O)c1c(C)[nH]c(C(=O)/C=C/c2ccccc2)c1C,0,6.2,13%,6,0%,-26%,24%
COC(=O)c1ccc(-n2c(C)cc(-c3csc(NC(=O)c4ccc(S(=O)(=O)N(C)C)cc4)n3)c2C)cc1,1,9.1,0.6%,1,-23%,u,7%
Cc1c(C(=O)NC(=S)NCC(C)C)oc2ccccc12,-9,-1.4,0.4%,-1,6%,2%,4%
COc1ccc(C(C)=O)cc1CSc1nc2ccccc2c(=O)n1-c1cccc(C)c1,9,1.3,-4.6%,8,3%,-1%,-1%
CCOC(=O)c1cnc2c(C(F)(F)F)cccc2c1N1CCOCC1,-9,2.0,-2.3%,6,-7%,-9%,12%
COC1=C/C(=C/c2c(N)n3nc(CC(=O)N4CCOCC4)sc3nc2=O)C=CC1=O,14,x,-0.4%,2,-19%,-26%,-3%
NCCOc1ccccc1Cc1ccccc1,8,2.6,-0.6%,0,13%,9%,-30%
O=C1CN(C(=O)COC(=O)c2cc(Cl)ccc2[N+](=O)[O-])c2ccccc2N1,x,x,-3.3%,-7,x,-22%,x
NS(=O)(=O)c1ccc(NC(=O)c2ccc3nccnc3c2)cc1,-6,0.9,x,-1,8%,33%[15.4 µM],6%
CN(c1ccc(OCC(=O)OCC(=O)Nc2ccccc2F)cc1)S(=O)(=O)c1cccs1,-7,x,-1.9%,0,-13%,0%,21%
O=C(CSc1nc2ccc(N3CCOCC3)cc2c(=O)n1CCc1ccccc1)NCC1CCCO1 (stereo not drawn),4,-1.0,-20%,-9,u,9%,-8%
COc1ccccc1CCNC(=O)CNC(=O)c1ccc2ccccc2c1,1,0.4,-0.1%,1,-6%,-5%,6%
CC(C)C1=NN2C(=N)CC(=O)N=C2S1,-1,12,-3.3%,-5,-16%,-35%[inhibitor],-3%
Cn1nnnc1SCC(=O)Nc1ccccc1Br,0,1.0,-0.7%,-2,5%,-68%[inhibitor],16%
C=CCn1c(SCC(=O)c2cc(C)n(C(C)COC)c2C)nc2sc(C)c(C)c2c1=O (stereo not drawn),-2,3.1,-3.3%,-23,-17%,-15%,u
Cc1sc2nc(SCC(=O)NCCO)n(-c3ccccc3)c(=O)c2c1C,-2,-6.5,x,-16,4%,-4%[15.4 µM],24%
O=C(Nc1ccccc1F)c1ccncc1,-3,3.6,-1.2%,-5,16%,-32%[inhibitor],-1%
O=C(O)c1ccc(/C=N/NC(=O)c2ccc(Br)cc2)cc1,3,x,-2.0%,17,2%,20%,-24%
Cc1ccc(-n2c(=O)c3sccc3n(Cc3cc(=O)n4ccccc4n3)c2=O)cc1,5,2.9,32µM*!,-4,1%,-21%,11%
C[C@H](NC(=O)c1nc[nH]c1C(=O)NC1CCNCC1)C(=O)OC(C)(C)C,1,x,0.1%,1,4%,x,x
COCc1nnc(NC(C)=O)s1,4,0.1,x,1,8%,-22%,6%
C(=N\Nc1nc2ccccc2[nH]1)/c1ccc2c(c1)OCCO2,11,19,-20%,x,-31%,-2%,25µM*
CCOc1ccc(NC(=O)Nc2cccn(Cc3ccccc3)c2=O)cc1,0,-1.6,28µM*,-4,-4%,13%[15.4 µM],15%
Cc1c(F)cccc1NC(=O)CCCCCC1NC(=O)NC1C (stereo not drawn),-5,6.4,u,-2,9%,3%[15.4 µM],-14%
CCCc1c(C(=O)Nc2ccc(OC)cc2)cnn1-c1ccccc1,x,7.3,-0.5%,x,-14%,-13%,5%
C/C(=N/NC(=O)c1ccc2c(c1)OCO2)c1cccc([N+](=O)[O-])c1,-11,x,0.6%,2,2%,-17%,17%
CSc1nc(N)nc2c1ncn2CC(=O)NCC1CCCO1 (stereo not drawn),x,x,4.2%,5,14%,x,x
CC(=O)Oc1c(-c2ccc(Br)o2)oc2ccccc2c1=O,-7,u,x,-3,-6%,u,2%
CSC1=NCCN1C(=O)Cc1ccc(Cl)cc1,-5,-0.2,-0.2%,3,4%,0%,6%
CCOCCCNC(=O)CN1C(=O)COc2ccc(S(=O)(=O)N3CCCCCC3)cc21,u,-2.0,0.9%&-0.3%,7,-5%,2%,5%
CC1(C)Cc2c(C#N)c(SCC(=O)c3ccccc3)nc(N3CCOCC3)c2CO1,12,-1.3,-6.1%,u,u,u,14µM*
NC(N)=NN=C1CCC(c2ccccc2)CC1 (stereo not drawn),-1,1.3,x,-16,4%,2%,-11%
Cc1ccc(S(=O)(=O)NN2C(=O)c3ccccc3NC2c2ccccc2O)cc1 (stereo not drawn),8,6.9,x,-5,3%,0%,6%
CC(C)(C)OC(=O)CNC(=O)c1[nH]cnc1C(=O)Nc1ccc(Cl)cc1,14,0.7,2.6%,-9,-16%,-21%,16%
COc1ccc(C(=O)COC(=O)CCn2nnc(-c3cccc(O)c3OC)n2)cc1,12,1.4,1.5%,5,1%,-12%,15%
CC(O)COc1ccc(/C(=N/O)c2ccccc2)cc1 (stereo not drawn),4,0.3,-0.3%,0,13%,4%,8%
Cc1cccc(C)c1NC(=O)CN(C)C(=O)CC1CC2CCC1C2 (stereo not drawn),-2,x,-6.5%,1,13%,-80%[inhibitor],x
C[C@@H]1CN([C@H](C)CO)C(=O)CCCn2nncc2CO[C@H]1CN(C)Cc1cccc2c1OCCCO2,x,x,-1.6%,0,x,29%,x
COC(=O)N/N=C/c1ccc(OS(=O)(=O)c2ccc(C)cc2)c(OC)c1,-18,3.1,x,-12,-22%,-30%[15.4 µM],16%
CCn1c(C)nc2cc(N)ccc21,-27,-1.1,-21%,-1,10%,7%,-9%
COc1ccccc1N1CCN(S(=O)(=O)c2cccc3nsnc23)CC1,0,0.8,-4.0%,-23,-4%,5%,11%
Cc1cccc(C(=O)Oc2ccc3ccc(O)cc3c2)c1,12,4.9,-1.2%,x,10%,u,18%
CCc1ncc(C)nc1CC,15,5.5,-1.4%,3,6%,x,2%
CCN(CC)/C(Sc1ccccc1)=C(\C(Cl)=C(Cl)Cl)[N+](=O)[O-],-2,0.9,x,2,5%,24%[15.4 µM],3%
CCCCCCCCNC(=O)c1cnccn1,-4,3.5,-5.6%,-4,-2%,2%,8%
Cc1ccc(S(=O)(=O)N2C[C@H]3C(=O)C[C@@H](c4cccc(Cl)c4)N(S(=O)(=O)c4ccc(C)cc4)[C@H]3C[C@H]2c2cccc(Cl)c2)cc1,x,x,0.8%,-4,x,-49%[inhibitor],x
C#Cc1ccc(CN2CCN(Cc3ccsc3)C(CCO)C2)cc1 (stereo not drawn),0,0.2,x,1,11%,0%,0%
COC(=O)C1(C)NC(c2ccco2)C2C(=O)N(c3ccc(F)cc3)C(=O)C21 (stereo not drawn),-2,-1.4,0.0%,5,11%,-3%[15.4 µM],23%
O=C(c1ccc(F)cc1)c1ccc(N2CCCC2)cc1,0,5.1,-0.7%,39,u,9%,-10%
Cc1ccsc1C(=O)NC1CCCN(Cc2ccc(Cl)cc2)C1 (stereo not drawn),-11,x,-2.5%,-7,1%,-3%[15.4 µM],8%
CCCN(CCC)S(=O)(=O)c1ccc(NC(=O)Cc2cccs2)cc1,-7,8.6,-0.3%,10,1%,1%,7%
Cc1cc(C)c(NC(=O)CSc2nccn2C)c(C)c1,11,7.1,-1.7%,-3,14%,-11%[15.4 µM],7%
CC(=O)Nc1ccccc1NC(=O)C/C(C)=N/NC(=O)c1ccc([N+](=O)[O-])c(Cl)c1,7,-1.0,-2.1%,0,20%,17%,-2%
Nc1ccc(C(=O)O)cc1,-1&-3,-3.6&-3.9,36%&-3.6%&1.4%,3&-13&8,4%&0%&4%,x,-4%&1%
O=C(NCCO)/C(=C\c1cccc([N+](=O)[O-])c1)NC(=O)c1ccco1,-8,3.9,0.4%,5,9%,-33%[inhibitor],20%
COc1ccc(S(=O)(=O)N2CCCC(C(=O)O)C2)cc1 (stereo not drawn),0,-4.2,1.0%,3,3%,u,10%
C/C(CC(C)C)=N\NS(=O)(=O)c1ccc(C)c([N+](=O)[O-])c1,2,-0.6,1.0%,-7,5%,-70%[inhibitor],12%
COc1ccc(CN2C(=O)C3C4C=CC(C4)C3C2=O)cc1 (stereo not drawn),-19,3.5,-1.0%,7,5%,1%,12%
CCOC(=O)c1nn(-c2ccc(C)cc2)c(=O)cc1OCC(=O)Nc1cc(C)ccc1OC,-17,x,-0.7%,2,2%,23%,x
CCOc1ccc(S(=O)(=O)N2CCCCC2)cc1NC(=O)Cc1cccs1,1,x,-1.6%,-18,u,-38%[inhibitor],x

# New compounds follow:
smiles,TRPV1 PAM,Menin-MLL FL inh,ClpP mod,CtBP-E1A blk,gsp antagonist,gsp agonist,Sfp inh
O=C1CC(c2ccccc2)CC(O)=C1C=NCc1ccncc1 (stereo not drawn),-15,-0.7,x,4,-7%,18%[15.4 µM],18%
Cc1noc(C)c1C(=O)Nc1cccnc1,3,0.8,-0.6%,40,-2%,3%,18%
O=C1C2CCCN2C(c2ccccc2F)N1c1ccc(Cl)cc1 (stereo not drawn),-14,4.6,-1.4%,-10,-12%,-5%,11%
O=C(CCn1cccn1)N1CCCC(N2CCN(c3cccc(Cl)c3)CC2)C1 (stereo not drawn),2,x,-4.8%,7,16%,-19%,12%
COc1ccccc1C(=O)COC(=O)Cn1[nH]c(=O)c2ccccc2c1=O,7,x,1.9%,-2,-19%,-3%[15.4 µM],x
O=C1CC(N2CCC(c3nc4ccccc4o3)CC2)C(=O)N1c1cc(Cl)cc(Cl)c1 (stereo not drawn),-5,u,0.7%,-6,-12%,8%,12%
COc1ccc(S(=O)(=O)N(CC(=O)O)c2ccc(C)cc2)cc1,-2,-1.3,-1.9%,4,-3%,5%,22%
Cc1ccc(S(=O)(=O)NCCC(=O)Nc2ccncc2)cc1C,0,x,x,-14,6%,-35%[15.4 µM],x
